Compound activity deposited in PubChem BioAssay by several laboratories.
Mtb betalactam = beta-lactam sensitization of Mtb H37Rv, H37Rv | M. tuberculosis H37Rv growth with meropenem, percent inhibition; hits of this screen are not shown here | inhibition, % at 25 µM | 330,000 tested, 0.27% active | AID 434955, 2010;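 active = about 74% or more and at least 40 points above the plate without the antibiotic, then above 30% in a dose series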;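 note: growth measured after seven days incubation then overnight dye step; 0% = bacteria only wells and 100% = bacteria with antibiotic; twin plates without the antibiotic show which effects depend on it; some results filed as inactive read as strong as hits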
YopH PTP inh = YopH tyrosine phosphatase inhibitors, primary screen, biochemical, fluorescence Ex485/Em525. inhibition, %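 (about 10 µM by stock and volumes)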. 140,000 tested, 0.16% active;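 active = inhibition of 50% or more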;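 note: controls were vehicle for no effect and minimum signal wells for full effect; inactives centre near -20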
Mtb growth = M. tuberculosis H37Rv growth inhibitors, H37Rv strain (AID 1626) | M. tuberculosis H37Rv growth inhibition; higher % means a stronger effect | inhibition, % at 10 µM, or IC50 in µM where a hit was titrated | 220,000 tested, 0.95% active;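 active = confirmed in a dose series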;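 note: bacteria incubated seven days before Alamar blue readout; 0% = bacteria only wells and 100% = bacteria with antibiotic wells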
Arbovirus inh = antivirals against arbovirus infection, primary screen, cell-based, full library, 10K replicate subset. arbovirus infection cell-based antiviral screen. inhibition, % at 10 µM. 200,000 tested, 0.37% active. AID 1251, 2008;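 active = inhibition from about 30%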;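 note: bluetongue infection of BSR cells; cell survival read as ATP light after 72 h; 0% = infected wells without compound and 100% = uninfected wells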
RecA splice inh = Mtb RecA intein splicing inhibitors, primary screen, biochemical, fluorescence, HTS. Protein RecA (Mycobacterium tuberculosis (strain ATCC 25618 / H37Rv)), P9WHJ3. cell-free RecA intein splicing. inhibition, %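 (about 9 µM by stock and volumes)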. 290,000 tested, 0.75% active. AID 2221, 2009; in the data active = inhibition above about 30%;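 note: 0% = vehicle wells and 100% = reference inhibitor control wells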
Target sequence (P9WHJ3 whole entry, looked up, canonical isoform): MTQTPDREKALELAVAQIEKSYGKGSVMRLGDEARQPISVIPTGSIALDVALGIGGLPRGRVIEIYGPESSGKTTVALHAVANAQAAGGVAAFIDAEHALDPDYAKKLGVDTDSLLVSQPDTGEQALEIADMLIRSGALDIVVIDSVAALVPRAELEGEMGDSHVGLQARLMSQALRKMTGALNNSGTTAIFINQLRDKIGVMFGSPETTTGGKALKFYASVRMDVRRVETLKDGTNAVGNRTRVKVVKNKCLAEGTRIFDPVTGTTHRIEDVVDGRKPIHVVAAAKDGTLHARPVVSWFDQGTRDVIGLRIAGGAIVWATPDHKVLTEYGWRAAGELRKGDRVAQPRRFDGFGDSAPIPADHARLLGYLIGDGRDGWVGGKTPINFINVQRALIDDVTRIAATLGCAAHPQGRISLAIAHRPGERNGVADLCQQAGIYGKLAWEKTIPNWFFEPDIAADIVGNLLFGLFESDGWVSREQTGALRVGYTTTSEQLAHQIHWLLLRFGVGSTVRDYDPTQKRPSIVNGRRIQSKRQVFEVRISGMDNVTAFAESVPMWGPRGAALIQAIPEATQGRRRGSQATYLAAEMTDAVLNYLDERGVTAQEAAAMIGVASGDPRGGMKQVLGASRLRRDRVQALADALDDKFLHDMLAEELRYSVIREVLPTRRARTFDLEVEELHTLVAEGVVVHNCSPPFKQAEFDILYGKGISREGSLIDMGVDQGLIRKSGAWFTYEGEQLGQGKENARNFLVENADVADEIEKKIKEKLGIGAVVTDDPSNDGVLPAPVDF
Arbovirus inh repeat = recorded beside Arbovirus inh, whose call it bears; inhibition, %; measured here: 10K subset replicate screen; many hits read low in the repeat;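 first of two repeat runs on a subset; 0% = infected and 100% = uninfected wells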
* hit, by the source's call; · = not tested or not shown. A portion of the library; count on the stated rates, not on these rows.

SMILES	Mtb betalactam	YopH PTP inh	Mtb growth	Arbovirus inh	RecA splice inh	others
C=CCn1c(SCC(C)=O)nc2scc(-c3ccc(C)o3)c2c1=O	6	·	·	·	-1.0
COC(=O)c1ccc(C(=O)N2CCCC(Nc3ccc(C(C)C)cc3)C2)cc1 (stereo unspecified)	1	·	·	·	-4.2
CCCCN(C(=O)c1ccc(Cl)c([N+](=O)[O-])c1)c1c(N)n(CCC)c(=O)[nH]c1=O	1	·	-11%	-7	0.5
OC(c1ccccn1)c1c[nH]c2ccccc12 (stereo unspecified)	-1	-28	-7%	-7	4.1
C[C@@H]1NC(=O)[C@H](CCC(N)=O)NC(=O)c2cc([N+](=O)[O-])cc(I)c2NCCC[C@@H](C(N)=O)NC1=O	-16	-13	-4%	12	·
CC(C)OCCCN(C)C1CCN(S(=O)(=O)c2ccc(-c3ccc(=O)[nH]n3)s2)CC1	0	·	·	·	0.6
N#Cc1ccccc1OCCn1cncn1	-25	·	·	·	1.6
Cn1cc(C(=O)C(=O)N2CCCc3ccccc32)c2ccccc21	-6	·	-4%	-15	6.9
COc1ccc(C2/C(=C(\O)c3ccc(OC)c(Cl)c3)C(=O)C(=O)N2CCN(C)C)cc1 (stereo unspecified)	3	-40	-2%	7	-1.9
CC(=O)N1CCN(Cc2nc(-c3cccc(Cl)c3)no2)CC1	-5	·	-7%	1	0.6

Looked up one by one from the list above:
SMILES	Mtb betalactam	YopH PTP inh	Mtb growth	Arbovirus inh	RecA splice inh	others
CCCCN(C(=O)c1ccc(Cl)c([N+](=O)[O-])c1)c1c(N)n(CCC)c(=O)[nH]c1=O	1	·	-11%	-7	0.5
CC(=O)N1CCN(Cc2nc(-c3cccc(Cl)c3)no2)CC1	-5	·	-7%	1	0.6

The main list resumes, repeating the two entries before the break.
SMILES	Mtb betalactam	YopH PTP inh	Mtb growth	Arbovirus inh	RecA splice inh	others
COc1ccc(C2/C(=C(\O)c3ccc(OC)c(Cl)c3)C(=O)C(=O)N2CCN(C)C)cc1 (stereo unspecified)	3	-40	-2%	7	-1.9
CC(=O)N1CCN(Cc2nc(-c3cccc(Cl)c3)no2)CC1	-5	·	-7%	1	0.6
COCCN1C(=O)c2ccc(C(=O)Nc3nccs3)cc2C1=O	-1	-34	10%	-2	-0.3
O=C(c1ccc(S(=O)(=O)NCc2ccco2)cc1)N1CCN(Cc2ccccc2)CC1	5	·	-14%	4	-3.5
CC(O)(CS(=O)(=O)Cc1ccccc1)c1ccccc1 (stereo unspecified)	-2	·	·	·	-2.5
O=C(c1cccc(-n2cccc2)c1)N1CCN(S(=O)(=O)c2ccccc2)CC1	-13	·	·	·	-3.6
CC(C)N(C)CCOC(=O)C1COc2ccccc2O1 (stereo unspecified)	0	·	-2%	·	1.6
CC(C)[C@H]1C(=O)Nc2ccccc2N1C(=O)N[C@@H](Cc1ccccc1)C(=O)N[C@@H](C(=O)O)c1ccccc1	3	·	·	·	0.3
N=C1c2ccccc2CN1NC(=O)COc1ccc(Cl)cc1	-7	·	-4%	5	1.4
O=c1cc(O)nc(SCc2ccccc2)n1-c1ccc(Cl)cc1	-8	·	5%	-9	4.6
CC(C(=O)Nc1ccc(O)c(C(=O)O)c1)N1C(=O)/C(=C/c2cccs2)SC1=S (stereo unspecified)	0	·	·	·	9.1
CC1=C(C(=O)Nc2ccccc2C(=O)N2CCC(C)CC2)SCCO1	-4	·	·	·	-0.6
O=C(CN1C(=O)NC2(CCCC2)C1=O)OCCOc1cccc(Cl)c1	-10	·	·	·	10
COc1ccc(C2Nc3ccccc3C(=O)N2c2ccc(C)cc2)cc1COc1ccccn1 (stereo unspecified)	-1	-31	1%	-8	-1.5
O=C(O)c1cc(C(=O)O)cc(N2C(=O)CSC2=S)c1	12	·	·	·	-3.6
COC(=O)/C=c1/sc2n(c1=O)CCN=2	5	-37	-5%	3	-2.6
CCCCNC(=O)C(c1ccc(OCC(=O)OC)c(C(=O)OC)c1)N(CCOC)C(=O)CCCCCN1C(=O)NC(c2ccc(-c3ccccc3)cc2)C(C(=O)OCc2ccccc2)=C1C (stereo unspecified)	3	·	·	·	1.0
CC(NO)/C(=N\O)c1cccs1 (stereo unspecified)	3	-25	-1%	-1	-4.9
O=C(Cc1cnn(-c2ccccc2)c1)c1ccc(O)c(O)c1O	3	26	-4%	7	6.4
O=C(Cn1c(NCCO)nc2ccccc21)NCC(F)(F)F	-8	·	-4%	·	-6.1
O=C(NCc1ccncc1)C(=O)NCc1ccncc1	-5	·	0%	6	1.2
CC(=O)NC(c1ccc2ccccc2c1)c1ccc2cccnc2c1O (stereo unspecified)	8	·	·	·	-0.7
COC(=O)/C(C#N)=C\c1c(OC)[nH]c2ccccc12	-8	·	-8%	·	0.4
Cc1ccccc1NC(=O)c1ccc(CN2CCc3ccccc3C2)cc1	-15	-34	7%	-8	8.4
Cc1cc(OCCCCNC(C)C)cc(C(C)C)c1	1	-21	4%	-7	-0.1
COc1ccc(CNS(=O)(=O)NCc2ccc(C)cc2)cc1OC	-11	·	·	15	-2.2
Cc1cc(C)nc(/N=C2\NC(=O)CC(C(=O)O)N2c2ccc(Cl)cc2)n1 (stereo unspecified)	-5	-40	-2%	0	1.2	Arbovirus inh repeat=3
Cc1cc(C(=O)CSc2n[nH]c(N)n2)c(C)n1-c1cccc(F)c1	-3	-41	-8%	-4	3.3
Cc1cc(OCC(=O)N2CCC(C(=O)O)CC2)c2c(C)cc(=O)oc2c1	-2	·	·	·	-0.8
COc1ccc(-c2ncccc2O)cc1	4	-10	2%	13	-12
CC1(NC(=S)Nc2ccc(NC(=S)NC3(C)CCS(=O)(=O)C3)cc2)CCS(=O)(=O)C1 (stereo unspecified)	-13	·	-18%	·	-5.0
COc1ccc(CCNc2c([N+](=O)[O-])c(=O)oc3ccccc23)cc1OC	-4	-37	-4%	8	-1.8
Fc1ccc(-c2cnc[nH]2)cc1	28	10	-2%	8	3.1
COc1ccccc1NC(=O)CN(c1ccccc1)S(=O)(=O)c1ccccc1	-2	·	·	·	5.8
CCCC(=O)NCn1nnc(-c2ccc(Cl)cc2)n1	·	·	0%	-2	4.9
NC(=O)C1CCCN(C(=O)CCCNC(=O)c2ccc(Cl)cc2)C1 (stereo unspecified)	-1	·	·	·	-0.8
COc1cc2[nH]c(=S)n(C3CCCC3)c(=O)c2cc1OC	-5	-19	-5%	0	1.5
CCc1cc(=O)oc2cc(C)cc(OCC(=O)NC3CCN(Cc4ccccc4)CC3)c12	1	·	·	·	-4.5
COc1ccc(CCN(C)S(=O)(=O)c2ccc(Cl)nc2)cc1OC	0	·	9%	1	-6.9
C=CCN(C(=O)CCS(=O)(=O)c1cccc2nsnc12)c1ccccc1	4	·	·	·	5.5
O=C(Nc1nccs1)c1ccc[nH]c1=O	-8	·	·	·	1.2
Cc1ccc(SCC(=O)NN=C2CCN(C)CC2)cc1	-8	·	2%	-3	0.6
Cc1ccc(C)c(N2CCN(S(=O)(=O)c3c(C)noc3/C=C/N(C)C)CC2)c1	14	-32	-4%	11	3.5
O=C(Nc1cccc(S(=O)(=O)NC2=NCCCCC2)c1)c1cccnc1Cl	2	·	-5%	·	-3.4
COCC(=O)n1cc(C(=O)OC)c2ccccc21	-9	-10	-7%	3	-0.9
N#CCCN1CCCc2cc(N=Nc3ccc(C(F)(F)F)cc3)ccc21	59	·	43%	·	12
O=S(=O)(c1ccc(NC(=S)NCc2ccncc2)cc1)N1CCCCC1	-13	·	-5%	·	1.0
CN1CCN(c2ccc(C(N)=O)cc2N)CC1	-2	-20	·	12	1.2
O=C(COC(=O)C1CC2CCCC(C1)C2=O)NNC(=O)c1ccc([N+](=O)[O-])cc1 (stereo unspecified)	10	·	·	·	1.2
COc1ccccc1-n1cnnc1SC(C)C(=O)Nc1ccc(NC(C)=O)cc1 (stereo unspecified)	-5	·	3%	9	-1.1
CC(/C=N/n1c(-c2n[nH]c3c2CCC3)n[nH]c1=S)=C\c1ccco1	-1	·	-5%	·	4.4
O=C(CN1C(=O)c2cccc3cccc1c23)NC1CCCC1	1	·	·	·	-10

Continuation.
SMILES	Mtb betalactam	YopH PTP inh	Mtb growth	Arbovirus inh	RecA splice inh	others
Cc1ccc(CNC(=O)c2ccc(NC(=O)C3=CSCCO3)cc2)cc1	-4	·	·	·	-1.1
COc1ccc(/C=C2\CCc3ccccc3C2=O)cc1Cn1nc(C)cc1C	-3	-24	-6%	-10	·
COc1ccc(NS(=O)(=O)c2csc(C(=O)N3CCCC3)c2)cc1	-5	·	·	·	2.4
CC(C)(C)c1ccc(OCCCN2CCCC2)cc1	2	·	·	·	-0.8
Cc1cc(NC(=O)Nc2ccccc2Cl)no1	-6	·	·	·	-0.3
O=C1C2C3c4ccccc4C(c4ccccc43)[C@@H]2C(=O)N1c1nc(-c2ccccc2)cs1 (stereo partly specified)	6	-20	2%	0	-3.5
CC1=NNC(=O)C1CCC(=O)N/N=C/c1ccc(C)cc1 (stereo unspecified)	-9	·	-8%	·	-4.0
O=C(Nc1cccc(C(F)(F)F)c1)c1cc2ncc(Br)cn2n1	0	12	-14%	6	·
O=C([C@H](Cc1ccccc1)N1C(=O)c2ccccc2C1=O)N1CCOCC1	5	·	·	·	-2.7
CCn1c(SC(C)C)nnc1C1CCN(S(=O)(=O)c2ccc(OC)cc2)CC1	9	1	-2%	9	-8.2

Continued, starting with the last 4 of the part before.
SMILES	Mtb betalactam	YopH PTP inh	Mtb growth	Arbovirus inh	RecA splice inh	others
CC1=NNC(=O)C1CCC(=O)N/N=C/c1ccc(C)cc1 (stereo unspecified)	-9	·	-8%	·	-4.0
O=C(Nc1cccc(C(F)(F)F)c1)c1cc2ncc(Br)cn2n1	0	12	-14%	6	·
O=C([C@H](Cc1ccccc1)N1C(=O)c2ccccc2C1=O)N1CCOCC1	5	·	·	·	-2.7
CCn1c(SC(C)C)nnc1C1CCN(S(=O)(=O)c2ccc(OC)cc2)CC1	9	1	-2%	9	-8.2
Cc1nn(-c2ccc3nnc(Br)n3n2)c(C)c1Br	·	-17	10%	-2	-1.4
CCOc1cc(C(=O)N2CCN(c3ccccn3)CC2)cc(OCC)c1OCC	0	·	·	·	-3.0
Cc1cccc(NC(=S)N2CCC(NC(=O)c3ccco3)CC2)c1	-2	·	·	·	-1.9
Cn1c(COc2ccc([N+](=O)[O-])cc2)nnc1SCC(N)=O	-7	·	1%	-3	8.6
CCOc1ccccc1N1CCN(C(=O)c2cc3c(C)cc(C)cc3[nH]2)CC1	61	·	·	·	-1.7
COc1ccc(NC(=O)CN2CCC3(O)CCCCC3C2c2cc(OC)ccc2OC)cc1 (stereo unspecified)	-2	-1	-1%	-8	1.7
O=C(NC1CCCCC1)NC1CC2CCC(C1)N2C(=S)NCc1ccco1 (stereo unspecified)	-4	-24	-3%	-6	-0.6
CCOC(=O)c1c(N)c(C#N)c2n1CCCC2	3	-16	-2%	4	1.7
COc1ccc(N2CCN(C(=O)CCNC(=O)Cn3ccc4ccccc4c3=O)CC2)cc1	1	·	2%	7	-4.7
CCC(C)NCCOCCSc1ccc(Cl)cc1 (stereo unspecified)	-17	6	-1%	-11	3.8
CC(C)(C)C1CCC(=O)N(CCC#N)CC1 (stereo unspecified)	-3	·	·	·	-3.1
COc1cccc(OC)c1C(=O)NC(=S)NNC(=O)[C@H]1C[C@@H]1c1ccccc1	-7	·	-1%	·	7.0
COc1cccc(NC(=O)CCN2C(=O)c3ccccc3S2(=O)=O)c1	·	-29	-12%	6	-0.6
CSc1cccc(NC(=O)C2CCCN(S(=O)(=O)c3cnc[nH]3)C2)c1 (stereo unspecified)	·	-50	-5%	8	·
Clc1ccc(C2CC(c3cccs3)n3ncnc3N2)cc1Cl (stereo unspecified)	98	-19	55%	7	4.6	Arbovirus inh repeat=5
NNC(=O)CNC(c1ccccc1)c1cc(Br)ccc1NC(=O)c1ccc(Br)cc1 (stereo unspecified)	8	-17	4%	-26	4.7
Cn1nc(C(=O)Nc2cccc(S(N)(=O)=O)c2)c2ccccc2c1=O	-2	·	-3%	·	-1.8
